Screens (PubChem BioAssay)
RE007 growth inh: less growth of the S. pombe RE007 Vpr strain. Potency, µM (doses to about 92.2 µM), inactives show at the highest dose activity change, negative = less growth. actives 0.21% (n = 360,000). S. pombe RE007 Vpr strain, BacTiter-Glo ATP luminescence, 24 h; control for the full effect not named in the record. AID 651644; active = well fitted falling curve with a large enough effect; inconclusive = small, poorly fitted or top-dose-only effect; inactive = no such curve, though single readings can be large or run the other way;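 further: on the % scale 0 is the no-effect control and ±100 the full control effect; nearly all actives have a fitted effect of over 50% in size; the assay follows cell death caused by Vpr and the record does not say whether a fall means rescue or toxicity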
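Fission yeast strain RE007, carrying one chromosomally integrated HIV-1 vpr copy, was seeded at OD 0.01 in PMG+AL medium with 23 nL pinned compound. After 24 h at 30 °C and 99% humidity, viability was read by BacTiter-Glo luminescence.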
NS1 inh: blocks influenza NS1 protein function. Potency, µM (series often up to 46.1 µM), without a hit: top-dose activity, positive = more growth. S. cerevisiae slowed by influenza A NS1, growth recovery by OD600. AID 2326. actives 0.4% (n = 270,000); further: actives are rising curves; nearly all actives have a fitted effect of over 50% in size
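OD600 was taken as the measure of yeast growth restored by compound in an NS1-expressing S. cerevisiae strain. Cells had been washed out of glucose medium and diluted 1:100 into galactose -URA medium, pH 6.0.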
Lassa entry inh: inhibitors of Lassa virus binding or cell entry. Potency, µM (highest dose often 37.9 µM), for the others: at the highest dose activity change, negative = inhibition, most hits filed as inhibitors. actives 1.2% (n = 300,000). Lassa virus pseudotype entry inhibition, cell reporter; control for the full effect not named in the record; active means well fitted inhibition curve with a large enough effect; inconclusive means small, poorly fitted or top-dose-only effect, or effect the other way; inactive means flat fitted curve, though single readings scatter; tested in HEK293 cells; further: on the % scale 0 is the no-effect control and ±100 the full control effect; nearly all actives have a fitted effect of over 50% in size; luciferase read-out
SARS PLP yeast: SARS-CoV PLP inhibition in yeast. Potency, µM (series often up to 32.9 µM), without a hit: at the highest dose activity, positive = growth rescue. AID 485353. actives 0.19% (n = 330,000). S. cerevisiae expressing SARS-CoV PLpro, growth rescue; control for the full effect not named in the record; further: 0% is about no effect; nearly all actives have a fitted effect of over 55% in size; growth read by luminescence after 48 h
Cruzain noTriton: cruzain (T. cruzi) inhibition without detergent. P25779. purified cruzain, Z-FR-AMC fluorescence, no detergent. Potency, µM, without a hit: max response, negative = inhibition, usual class: inhibitors. actives 2.3% (n = 200,000); active means well fitted curve in the direction sought with a large enough effect; inconclusive means small, poorly fitted or top-dose-only effect, or another doubt; inactive means no such curve, though single readings can be large; an effect the other way counts as inactive or inconclusive;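 further: plate controls were enzyme without inhibitor for no effect and buffer without enzyme for full effect; nearly all actives have a fitted effect of over 40% in size; top concentration of the series not given in the record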
Target sequence (P25779 123-467 limits assumed): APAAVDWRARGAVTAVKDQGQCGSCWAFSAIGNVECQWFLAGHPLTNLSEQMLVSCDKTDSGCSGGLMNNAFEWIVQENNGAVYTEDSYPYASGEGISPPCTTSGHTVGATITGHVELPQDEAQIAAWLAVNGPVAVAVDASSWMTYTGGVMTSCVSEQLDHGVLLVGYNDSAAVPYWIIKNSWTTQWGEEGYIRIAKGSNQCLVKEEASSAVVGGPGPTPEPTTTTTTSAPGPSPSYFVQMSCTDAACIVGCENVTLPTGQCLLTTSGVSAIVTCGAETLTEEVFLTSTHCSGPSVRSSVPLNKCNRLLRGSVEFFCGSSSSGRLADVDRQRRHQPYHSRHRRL
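Purified cruzain at 1.5 nM, pre-incubated 15 min with compound at room temperature in 100 mM sodium acetate pH 5.5, 5 mM DTT, 0.00005% Triton X-100. Reaction started with 2 uM Z-FR-AMC; AMC fluorescence increase over 60 s gives rate.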
Marburg entry inh: blocks Marburg virus binding to or entry into cells | Marburg virus pseudotyped entry inhibition, cell reporter; control for the full effect not named in the record; about a third of the inactives were read at about 46 µM | Potency, µM (titrated, usually from 37.8 µM), for the others: at the top dose activity change, negative = inhibition, actives largely listed as inhibitors | actives 1.8% (n = 300,000); active = well fitted inhibition curve with a large enough effect; inconclusive = small, poorly fitted or top-dose-only effect, or effect the other way; inactive = flat fitted curve, though single readings scatter; tested in HEK293 cells; about a fifth of its hits are not listed in these tables; further: on the % scale 0 is the no-effect control and ±100 the full control effect; luciferase read-out
StopGo reporter: lowers the luciferase signal of an FMDV 2A StopGo reporter; human cells with a luciferase reporter of 2A StopGo recoding; control for the full effect not named in the record; Potency, µM (highest dose often 57.9 µM), for the others: at the top dose signal change, negative = less light; actives 1.2% (n = 410,000); AID 1159524; active = well fitted falling curve with a large enough effect; inconclusive = small, poorly fitted or top-dose-only effect; inactive = no such curve, though single readings can be large or run the other way; tested in HEK293T cells; further: on the % scale 0 is the no-effect control and ±100 the full control effect; nearly all actives have a fitted effect of over 45% in size; luciferase light after 4 h
Cruzain Triton: blocks cruzain activity in presence of Triton detergent; P25779; purified cruzain, Z-FR-AMC fluorescence, 0.01% Triton; Potency, µM, for the others: max response, negative = inhibition, hits mostly inhibitors; actives 0.43% (n = 200,000); active means well fitted curve in the direction sought with a large enough effect; inconclusive means small, poorly fitted or top-dose-only effect, or another doubt; inactive means no such curve, though single readings can be large; an effect the other way counts as inactive or inconclusive;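 further: plate controls were neutral wells for no effect and buffer without enzyme for full effect; nearly all actives have a fitted effect of over 40% in size; top concentration of the series not given in the record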
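Cruzain (1.5 nM) preincubated 15 min at RT with compound in 100 mM sodium acetate pH 5.5, 5 mM DTT, 0.01% Triton X-100. Reaction started with 2 uM Z-FR-AMC; AMC fluorescence (ex 360/em 450 nm) change over 60 s gave rate.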
The depositor's hits bear a star; ? = inconclusive; . = not tested or not shown; & = joins results of further samples; [ ] = remark or other dose. Unless noted, the call rests on the fitted dose curve; in most records, active means well fitted rising curve with a large enough effect; inconclusive means small, poorly fitted or top-dose-only effect; inactive means no such curve, though single readings can be large or run the other way. Potency means the concentration at half of the fitted maximal effect.

Order of results: NS1 inh	StopGo reporter	Marburg entry inh	Cruzain Triton	Lassa entry inh	SARS PLP yeast	Cruzain noTriton	RE007 growth inh
Cc1cc(C)c(S(=O)(=O)N2CCC3(CC2)OCCN3S(=O)(=O)c2cccs2)c(C)c1
→ .	22%	?	.	-8%	1%	.	-9%
O=C(O)Cn1ccnc1[N+](=O)[O-]
→ -3%	-8%	.	1.4%	.	.	2%	14%
O=C(NC12CC3CC(CC(C3)C1)C2)c1cc(F)c(F)cc1Cl
→ 15%	-16%	?	.	-1%	-2%	.	9%
COc1ccc(CNC(=O)CN2C(=O)CSc3ccc(S(=O)(=O)N4CCOCC4)cc32)c(OC)c1
→ -8%	15%&-7%	.	0.4%	?	12%	5%	-11%
C/C(=N\OCC(=O)NC12CC3CC(CC(C3)C1)C2)c1cc2ccccc2o1
→ -20%	-5%	?	-4.0%	?	-72%	-1%	12%
O=C(O)C1C2C=CC(CC2)C1C(=O)O (stereo unspecified)
→ -2%	5%	7%	0.7%	-1%	5%	-1%	11%
COC(C[C@H]1O[C@@H]1[C@@H](O)[C@H](C)OCc1ccccc1)OC
→ 5%	-12%	.	.	.	-2%	.	-15%
COc1ccccc1-c1nnn(CC#N)n1
→ -2%	.	1%	1.5%	0%	?	6%	7%
CC1=C(C(=O)Nc2ccc(Cl)cc2)C(c2ccccc2C)n2ncc(C(=O)Nc3ccc(C)cc3)c2N1 (stereo unspecified)
→ .	-16%	5.6µM*	-4.3%	?	.	32µM*	.
O=C1[C@H](O)[C@@H](O)C(=O)N1Cc1ccccc1
→ 1%	-15%	-2%	.	3%	-1%	.	2%
CSC[C@H](NC(=O)COc1cc2c(c3oc(=O)cc(C)c13)CCC(C)(C)O2)C(=O)O
→ 3%	-25%	.	.	.	-1%	.	9%
CCOC(=O)N1CCC(Nc2c(NCCCN(CC)CC)c(=O)c2=O)CC1
→ 1%	-1%	.	3.4%	.	-3%	-13%	-3%
CCNC(=S)Nc1cc(OCC)c(NC(=O)c2ccco2)cc1OCC
→ 8%	6%	-3%	-6.2%	?	0%	-5%	7%
COc1ccccc1CCC(=O)OCC(=O)Nc1c(Br)cc(C)cc1Br
→ 1%	-2%	4%[46.1 µM]	.	6%	0%	.	4%
Cn1ccnc1SCc1nc2c(cnn2-c2ccccc2)c(=O)[nH]1
→ -8%	-1%	0%	-2.7%	-8%	3%	-3%	1%
Cn1c(CSCc2ccc(Cl)cc2Cl)n[nH]c1=S
→ -2%	-22%	-10%[46.1 µM]	.	0%	1%	.	3%
CSc1nc(-c2ccccc2)nn1C(=O)c1ccc(Cl)cc1
→ -43%	4%	-3%	0.5%	?	-17%	-5%	-1%
COc1cccc(CC2(CO)CCCN(Cc3cc(F)ccc3-n3cccn3)C2)c1 (stereo unspecified)
→ 1%	-16%	?	.	-29%	-2%	.	-19%
COc1ccc(C2C(C#N)=C(N)OC3=C2C(=O)CCC3)c(OC)c1OC (stereo unspecified)
→ ?	-10%	?	2.7%	1%	6%	-1%	-6%
O=C1CCCC(O)=C1C1NCCc2ccccc21 (stereo unspecified)
→ 0%	-13%	-7%	3.6%	-1%	-5%	-3%	7%
Cc1ccc(/C=N/NC(=O)C2=NNC(c3ccccc3)(c3ccccc3)C2)c(O)c1
→ 12%	5%	8.9µM*	-5.6%	14µM*	3.5µM*	20µM*	-14%
CSc1ccc(N2C(=O)NC3(CCCCC3)C2=O)cc1
→ -6%	60%[activator]	10%[46.1 µM]	8.2%	0%	1%	3%	27%
Cc1ccc2c(c1)N(C(=O)CCC(=O)Nc1ccccc1Br)CC(C)O2 (stereo unspecified)
→ -4%	-19%	.	.	.	-14%	.	-3%
O=C(Nc1ccccc1-c1ccccc1)NC1CCN(CC(=O)N2CCOCC2)CC1
→ -3%	7%	-5%&-5%	0.8%	0%	-3%	-2%	-3%
CCCCOc1ccc(C(=O)N2CCCCCC2)cc1
→ -17%	39%[activator]	?	-2.8%	-1%	-2%	-2%	-10%
O=C(c1ccccc1Sc1cccc2ccccc12)N1CCOCC1
→ -9%	-23%	-7%[46.1 µM]	-7.6%	5%	-4%	30%	-3%
Cc1cc(C(=O)CSc2nnc(-c3ccc(OC(F)F)cc3)o2)c(C)n1Cc1cccs1
→ -20%	20%	2%&2%	1.9%	-5%	0%	-28%	-2%
O=C1CCC([N+](=O)[O-])C(c2ccc(Cl)c([N+](=O)[O-])c2)N1 (stereo unspecified)
→ .	-6%	-19%[46.1 µM]	.	2%	2%	.	6%
CC(C)OCc1ccc(C(=O)N2CCN(CC(=O)N3CCCC3)CC2)cc1
→ .	-4%	5%	.	-4%	2%	.	2%
O=C(CN1C(=O)c2ccccc2C1=O)c1ccc(F)cc1
→ -4%	42%[activator]	2%	.	?	1%	.	-8%

Carrying on.
Order of results: NS1 inh	StopGo reporter	Marburg entry inh	Cruzain Triton	Lassa entry inh	SARS PLP yeast	Cruzain noTriton	RE007 growth inh
Cc1cc(-c2csc(NC(=O)c3ccccc3C(F)(F)F)n2)c(C)n1Cc1ccccc1
→ 26%	-10%	6%	-0.1%	1%	?	16µM*	.
O=C(CC1COc2ccccc2O1)NCCc1ccccc1 (stereo unspecified)
→ -11%	28%	7%	6.3%	4%	-4%	0%	-6%
O=C1NC(=S)NC(=O)C1=Cc1ccccc1C(=O)O
→ .	-6%	-9%	.	6%	.	.	1%
COc1ccccc1NC(=O)C1=C(C)NC(=O)NC1c1ccco1 (stereo unspecified)
→ -1%	2%	.	.	.	2%	.	-4%
Cc1cc(/C=C2\SC(=O)N(CC(=O)Nc3ccccc3F)C2=O)c(C)n1C
→ .	18%	6%	.	-5%	1%	.	10%
S=C(Nc1cccc2ccccc12)NN1CCOCC1
→ 4%	1%	1%	-0.5%	1%	2%	4%	0%
COc1ccc(CCNC(=O)C2CCCN2S(=O)(=O)c2cccc3nsnc23)cc1OC (stereo unspecified)
→ -5%	-10%	.	.	.	0%	.	0%
CC(=O)c1c(C)[nH]c(C(=O)Nc2ccc(S(=O)(=O)N(C)C)cc2)c1C
→ -2%	-7%	1%	.	-6%	0%	.	6%
CCCOc1ccc(NC(=O)CC2C(=O)N(c3ccc(OCC)cc3)C(=S)N2C2CC2)cc1 (stereo unspecified)
→ 5%	-5%	.	.	.	-2%	.	-4%
COc1ccc([N+](=O)[O-])cc1NC(=O)CC1SC(=Nc2cccc(C)c2C)N(/N=C/c2cccc(OC)c2OC)C1=O (stereo unspecified)
→ 17%	32%&1%[activator]	?	.	-10%&6%[46.1 µM]	0%	.	1%&4%
COc1ccc(NC(=O)/C(N=Nc2ccc(Cl)c(S(=O)(=O)Nc3ccc(Cl)cc3)c2)=C(\C)O)cc1
→ .	6%	?	.	22%[46.1 µM]	7%	.	0%
COc1ccc(-c2nn(-c3ccccc3)cc2/C=C2/SC(=S)N(CCC(=O)O)C2=O)c(C)c1
→ 11µM*	32µM*	?	.	2%[46.1 µM]	-5%	.	1%
O=C(CN1C(=O)C2C3CC(C(Br)C3Br)C2C1=O)Nc1ccc(C(=O)O)cc1 (stereo unspecified)
→ 3%	-7%	.	.	.	1%	.	-9%
CS(=O)(=O)c1ccc(-c2cccc(NC(=O)c3ccc(Br)o3)c2)nn1
→ .	-10%	-3%[46.1 µM]	.	-11%	0%	.	-4%
Cc1ccc(C)c(S(=O)(=O)NCCCc2ccccc2)c1
→ -41%	31%[activator]	-24%[46.1 µM]	.	-13%	-5%	.	17%
CCCOc1cccc(C(=O)NCCNC(=O)c2ccc(C)nc2)c1
→ 2%	-7%	9%[46.1 µM]	.	1%[46.1 µM]	3%	.	0%
Cc1cc(SCC(=O)N/N=C/c2cccnc2)nc2c(C)cccc12
→ -1%	?	-6%[46.1 µM]	.	0%[46.1 µM]	-1%	.	-2%
C/C(=N/OC(=O)c1ccc(C)cc1)C(=O)c1ccc(Br)cc1
→ -63%	0%	.	.	.	-1%	.	2%
COc1ccc(NC(=O)c2cc(-c3cc(Cl)ccc3O)n[nH]2)c(OC)c1
→ 0%	0%	1%[46.1 µM]	.	10%[46.1 µM]	1%	.	-3%
O=C(NCc1ccccn1)c1ccc(Cl)s1
→ -2%	.	?	2.7%	13%	1%	10%	-5%
Cc1cccc(N2CCN(C3=C(c4ccccc4)C(=O)c4ccccc43)CC2)c1C
→ .	-20%	11%[46.1 µM]	-5.4%	14%[46.1 µM]	.	-5%	.
Cc1cc(=O)n(CCCO)c(O)c1C#N
→ -6%	-1%	-9%[46.1 µM]	-0.5%	-12%	-2%	1%	-1%
COc1ccccc1Nc1nc2c(s1)CCC2
→ -7%	24%	11%[46.1 µM]	-5.8%	1%	-7%	2%	-6%
CCc1nnc(NC(=O)CN2C(=O)NC3(CC(C)CC(C)(C)C3)C2=O)s1 (stereo unspecified)
→ 14%	-23%	.	.	.	5%	.	22%
CC(=O)c1noc(C)c1C(=O)Nc1nccs1
→ -2%	-5%	-12%	8.6%	-7%	-15%	-1%	-18%
NC(=O)[C@@H]1CCCN1C(=O)c1ccc2nc(Cc3ccccc3F)oc2c1
→ 7%	5%	-19%[46.1 µM]	.	28%[46.1 µM]	-3%	.	-22%
O=C(Nc1ccc2c(c1)CCC2)c1cc2ccccc2o1
→ -69%	-27%	-21%	-11%	?	-20%	-7%	?
CCc1cc2c3c(c(=O)oc2cc1O)CCCC3
→ -35%	-6%	9%	-26%	14%	0%	24%	-17%
Cc1n[nH]c(=O)n1-c1ccc(OCc2ccccc2)cc1
→ 0%	31%[activator]	?	.	-31%[46.1 µM]	-1%	.	-9%
Cc1ccc(C)c(CN2C(=O)c3ccccc3S(=O)(=O)c3ccc(C(=O)Nc4cc(F)ccc4F)cc32)c1
→ .	32%	?	-2.4%	-26%[46.1 µM]	.	16µM*	.
Cc1ccc(NC(=O)c2c(C)nn(-c3ccccc3)c2Cl)cc1
→ -16%	40%[activator]	22%	-5.9%	-15%	2%	-3%	-23%
